Screening data deposited in PubChem BioAssay by Broad Institute.
MITF inh – inhibitors of MITF. 37,000 compounds, 0.28% hits. AID 2240. inhibition, % (test concentration not listed). TRPM1 promoter luciferase, luminescence, 24 h;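 active = most replicates at 85% or more, or half of them and the mean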;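 also: human melanocyte line stably carrying TRPM1 promoter luciferase reporter; 0% = vehicle wells and 100% = a positive control; the first replicate is given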
YB-1 expression – YB-1 expression inhibition; AID 434959; delta delta Cp (YB-1 minus CDIP) (concentration not given with the values); U2OS, qRT-PCR YB-1 vs CDIP delta delta Cp, 16 h; stronger effect = higher value; zero = DMSO, each unit about twofold; 30,000 compounds, 0.37% hits;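 active = delta delta Cp rounded down to an integer at or above 3, about 3 SD of DMSO wells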;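 also: higher means less YB-1 transcript or more CDIP transcript relative to DMSO; stock transfer was 100 nL into about 100 µL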
PD-1 reverse act – reversal of PD-1 mediated T-cell inhibition; 29,000 tested, under 10 active; activation, % (no concentration beside the values); primary human CD4 T cells, PD-L1 beads, CellTiter-Glo 96 h;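 active = replicate mean of 50% or more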;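 also: 0% = median vehicle wells and 100% = positive control; 100 nL library stock added to about 50 µL; numbers are from one replicate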
Shh pathway inh – blocks Sonic Hedgehog signaling; Shh-LIGHT2 Gli-luciferase reporter, 30 h; inhibition, % (no concentration beside the values); 22,000 compounds, 2.1% hits;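 active = replicate mean of 65% or more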;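 also: pathway switched on by Shh-conditioned medium diluted 1 in 25 in low serum; 100 nL library stock added to about 40 µL; 0% = median of neutral wells and 100% = positive control level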
An asterisk follows results filed as active; . = not tested or not shown. These rows are one share of the data; the hit share may differ from the screen's.

molecule,MITF inh,YB-1 expression,PD-1 reverse act,Shh pathway inh
CC(C)NC(=O)Nc1ccc2c(c1)C(=O)N([C@H](C)CO)C[C@@H](C)[C@H](CN(C)Cc1ccc3c(c1)OCO3)O2,4,0.43,.,-28
O=C(CSc1nnc(-c2ccc([N+](=O)[O-])cc2)n1-c1ccccc1)NC1CCCCC1,15,.,0.5,.
c1ccc(-c2csc3nnc(SCc4ccc5c(c4)OCCO5)n23)cc1,-5,.,1.2,.
S=C1CC(c2ccccc2)Sc2ccccc2N1 (stereo unspecified),12,-0.3,-5.4,16
C[C@@H]1CN([C@H](C)CO)C(=O)c2cccc(NC(=O)c3ccc(-c4nccs4)cc3)c2O[C@H]1CN(C)Cc1ccc(C(=O)O)cc1,-13,-0.41,-2.7,-31
C[C@H]1CN([C@@H](C)CO)C(=O)c2cc(NC(=O)CCCN(C)C)ccc2O[C@H]1CN(C)C(=O)Nc1ccc(F)cc1,-1,-0.25,0.7,-15
CC1(C)c2cc(Cl)ccc2-n2c1cc(O)c(-c1ccccc1)c2=O,24,0.59,2.3,-40
C[C@H](CO)N1C[C@H](C)[C@H](CN(C)C(=O)Nc2ccccc2)Oc2ccc(NS(C)(=O)=O)cc2CC1=O,-1,-0.084,.,5
COc1ccc(CN(C)C[C@H]2Oc3c(NS(=O)(=O)c4cccs4)cccc3C(=O)N([C@@H](C)CO)C[C@H]2C)cc1,-4,-0.32,-0.3,-13
Cc1[nH]c(=S)[nH]c1C12CC3CC(CC(C3)C1)C2,7,-0.24,-1.0,11

By substructure: the compounds so far with an aryl thioether with sulfur outside any ring (2)
molecule,MITF inh,YB-1 expression,PD-1 reverse act,Shh pathway inh
O=C(CSc1nnc(-c2ccc([N+](=O)[O-])cc2)n1-c1ccccc1)NC1CCCCC1,15,.,0.5,.
c1ccc(-c2csc3nnc(SCc4ccc5c(c4)OCCO5)n23)cc1,-5,.,1.2,.

Continued:
molecule,MITF inh,YB-1 expression,PD-1 reverse act,Shh pathway inh
C[C@@H]1CN([C@H](C)CO)C(=O)Cc2cc(NC(=O)Nc3ccc(C(F)(F)F)cc3)ccc2O[C@H]1CN(C)Cc1ccc(C(=O)O)cc1,-1,-0.55,1.3,-14
COc1ccc(NC(=O)Nc2cccc3c2O[C@H](CN(C)C(=O)Nc2cccc4ccccc24)[C@H](C)CN([C@@H](C)CO)C3=O)cc1,-24,-0.055,0.9,-26
CC(=O)NCCOc1c(C)cccc1C,-4,-0.28,2.8,-15
C[C@@H]1CN([C@H](C)CO)C(=O)Cc2cc(NC(=O)Nc3cccc4ccccc34)ccc2O[C@H]1CN(C)Cc1ccc(C(F)(F)F)cc1,22,0.027,.,-24
CC(NS(=O)(=O)c1ccc(F)cc1)C(=O)Nc1cccc(C(F)(F)F)c1 (stereo unspecified),24,.,0.9,.
FC(F)(F)COc1cc(-c2n[nH]c(=S)n2Cc2ccco2)cc(OCC(F)(F)F)n1,4,-0.00055,-1.9,28
Cc1ccc(S(=O)(=O)Nc2ccc3c(c2)C(=O)N([C@@H](C)CO)C[C@@H](C)[C@H](CN(C)C(=O)Nc2ccc(C(F)(F)F)cc2)O3)cc1,17,0.2,.,-9
CSC(=NC(C)(C)C)Nc1ccccc1Cl,6,-0.023,-1.1,.
COc1ccc2nc3c(cc2c1)c(=O)n(C)c(=O)n3C,5,-0.012,6.8,-13
Cc1noc(C)c1NC(=O)N(C)C[C@@H]1Oc2c(NC(=O)c3ccncc3)cccc2C(=O)N([C@H](C)CO)C[C@H]1C,-1,-0.21,-0.6,-23

The list continues:
molecule,MITF inh,YB-1 expression,PD-1 reverse act,Shh pathway inh
N#Cc1c(SC2CCCC2)nsc1SC1CCCC1,-78,0.21,-8.6,-33
Cc1nn(C)c2ncc(C(N)=O)c(Oc3cccnc3)c12,-11,-0.1,-1.7,-2
C[C@H]1CN([C@@H](C)CO)C(=O)c2cccc(NC(=O)Nc3cccc4ccccc34)c2O[C@@H]1CN(C)C(=O)Nc1ccc2c(c1)OCO2,-16,-0.21,-3.4,28
C[C@H]1CN([C@@H](C)CO)C(=O)Cc2cc(NC(=O)Cc3cn(C)c4ccccc34)ccc2O[C@H]1CN(C)Cc1ccc(-c2ccccc2)cc1,23,0.04,-0.1,-14
CCOc1cc([N+](=O)[O-])ccc1NC(=O)CC1Sc2ccccc2NC1=O (stereo unspecified),35,.,-3.8,.
Cc1c(NC(=O)CSc2nc3cc(C(=O)N4CCCC4)ccc3s2)c(=O)n(-c2ccccc2)n1C,17,.,1.6,.
O=C(CS(=O)c1ccc(C(F)(F)F)cc1[N+](=O)[O-])Oc1ccc(Cl)cc1 (stereo unspecified),0,.,-12,.
Cc1cc(C(=O)Nc2cccc3c2O[C@@H](CN(C)Cc2ccccc2)[C@@H](C)CN([C@@H](C)CO)C3=O)n(C)n1,-8,0.88,.,-8
CCOC(=O)COc1ccc2c(=O)c(-c3ccccc3OC)c(C(F)(F)F)oc2c1,0,.,-4.4,.
C[C@H]1CN([C@@H](C)CO)C(=O)Cc2cc(NC(=O)C3CCCCC3)ccc2O[C@@H]1CN(C)S(=O)(=O)c1ccc(Cl)cc1,14,-0.0082,.,-33

Next records follow:
molecule,MITF inh,YB-1 expression,PD-1 reverse act,Shh pathway inh
Cc1ccc(S(=O)(=O)Nc2ccc3c(c2)C(=O)N([C@@H](C)CO)C[C@@H](C)[C@H](CN(C)S(=O)(=O)c2ccc(F)cc2)O3)cc1,-7,0.19,0.1,1
CCNS(=O)(=O)c1ccc(Cl)cc1I,-3,-0.22,-0.2,-26
Cc1ccc(NC(=O)CSc2nc3ccccc3s2)cc1[N+](=O)[O-],-10,.,0.4,.
Cc1cc(=O)c2c(O)c(C)c(O)cc2o1,4,-0.045,.,-4
CCn1c(=S)[nH]c2ccccc2c1=O,6,0.22,-21,53
C[C@H]1CN([C@@H](C)CO)C(=O)c2cc(NC(=O)CCC(F)(F)F)ccc2O[C@@H]1CN(C)S(C)(=O)=O,-1,0.56,0.6,-22
Cc1noc(C)c1S(=O)(=O)N(C)C[C@@H]1Oc2c(NS(C)(=O)=O)cccc2C(=O)N([C@@H](C)CO)C[C@H]1C,1,0.16,1.4,-3
Cc1cc(OCC(=O)Nc2cccc(C(=O)O)c2)cc(C)c1Cl,-71,.,1.2,.
Cc1ccc(C(=O)C2C(=O)c3ccccc3C2=O)cc1,15,-0.69,-2.6,.
O=C(NC(=O)c1ccc(OCC(F)(F)F)nc1)NN1CCOCC1,-8,0.06,0.6,-15

Other entries.
molecule,MITF inh,YB-1 expression,PD-1 reverse act,Shh pathway inh
CC1(CO)C=Cc2c(cc(O)c3c(=O)c(-c4ccc(O)cc4)coc23)O1 (stereo unspecified),.,-0.42,.,-48
Cc1c(C(=O)Nc2ccccc2C(=O)NCc2ccco2)cccc1[N+](=O)[O-],6,.,-0.2,.
C[C@@H]1CN([C@@H](C)CO)C(=O)c2cccc(NC(=O)Nc3ccc4c(c3)OCO4)c2O[C@@H]1CN(C)Cc1ccc(C(=O)O)cc1,-10,-0.15,1.9,-10
COC(=O)c1ccccc1NC(=O)C(C)NS(=O)(=O)c1ccc(C)cc1 (stereo unspecified),-11,.,1.4,.
O=C1OCc2cc3cccc(O[C@@H]4O[C@H](CO)[C@@H](O)[C@H](O)[C@H]4O)c3c(O)c21,7,0.064,0.2,-8
C[C@H](CO)N1C[C@H](C)[C@H](CN(C)C(=O)Nc2cccc3ccccc23)Oc2ccc(NC(=O)CCCCCC(=O)Nc3ccccc3N)cc2CC1=O,-12,-0.074,-0.6,.
Cc1noc(C)c1S(=O)(=O)N(C)C[C@H]1Oc2c(NC(=O)C3CCCCC3)cccc2C(=O)N([C@@H](C)CO)C[C@H]1C,-5,-0.41,-1.2,-3
COC(=O)C1(Cc2ccc(O)c(CC3OC3(C)C)c2)OC(=O)C(=O)C1c1ccc(O)cc1 (stereo unspecified),.,-0.35,.,-37
C[C@@H]1CN([C@@H](C)CO)C(=O)Cc2cc(NC(=O)CCCCCC(=O)Nc3ccccc3N)ccc2O[C@@H]1CN(C)C(=O)Nc1ccc2c(c1)OCO2,-22,-0.23,0.4,.
CCNC(=O)c1c(NC(=O)COc2ccc(Cl)cc2Cl)sc2c1CCCC2,-6,.,-0.6,.

Next part.
molecule,MITF inh,YB-1 expression,PD-1 reverse act,Shh pathway inh
C[C@@H]1CN([C@@H](C)CO)C(=O)Cc2cc(NC(=O)Cc3ccccc3)ccc2O[C@@H]1CN(C)S(C)(=O)=O,-2,-0.12,2.5,-16
Clc1ccc(-c2csc3ncnc(SCc4ccco4)c23)cc1,23,.,-2.4,.
CCn1cc(NC(=S)Nc2cc(Cl)ccc2OC)c(C(N)=O)n1,-18,.,-1.9,.
Cc1ccc(S(=O)(=O)Nc2ccc3c(c2)C(=O)N([C@H](C)CO)C[C@@H](C)[C@@H](CN(C)Cc2ccccc2)O3)cc1,-4,-0.2,-3.4,.
Cc1ccc(S(=O)(=O)Nc2cccc3c2O[C@@H](CN(C)S(C)(=O)=O)[C@@H](C)CN([C@H](C)CO)C3=O)cc1,2,-0.13,.,8
COc1ccc([N+](=O)[O-])cc1NC(=O)CN(c1ccc(F)c(Cl)c1)S(C)(=O)=O,53,.,1.4,.
COc1cccc2sc(NC(=O)c3ccc(S(=O)(=O)N4CCCC(C)C4)cc3)nc12 (stereo unspecified),15,-0.021,4.7,-47
COc1ccc(CN(C)C[C@@H]2Oc3ccc(NS(=O)(=O)c4c(C)noc4C)cc3CC(=O)N([C@H](C)CO)C[C@@H]2C)cc1,2,-0.0099,.,-31
CCN(CC(=O)Nc1ccc(Br)cc1)S(=O)(=O)c1ccc(C)cc1,6,.,2.2,.
C[C@@H]1CN([C@H](C)CO)C(=O)c2cc(NS(=O)(=O)c3ccc(F)cc3)ccc2O[C@H]1CN(C)Cc1ccc(C(=O)Nc2ccccc2N)cc1,-3,0.034,-1.7,.

Other structures follow:
molecule,MITF inh,YB-1 expression,PD-1 reverse act,Shh pathway inh
COC(=O)c1cccc(COC(=O)c2ccc(NC(=O)c3ccccc3)cc2)c1,-25,.,0.9,.
C[C@H](CO)N1C[C@H](C)[C@H](CN(C)C(=O)Nc2ccc(C(F)(F)F)cc2)Oc2c(NC(=O)CCCCCC(=O)Nc3ccccc3N)cccc2C1=O,22,0.12,-0.7,.
O=S(=O)(Cc1ccccc1)c1ccccc1,-18,-0.19,4.3,-16
CCn1c(SCC(=O)Nc2cccc(Cl)c2)nnc1-c1ccc(Cl)cc1Cl,39,.,-1.7,.
C[C@@H]1CN([C@H](C)CO)C(=O)Cc2cc(NC(=O)Cn3cnnn3)ccc2O[C@H]1CN(C)Cc1ccncc1,0,-0.15,.,-2
Cc1noc(C)c1NC(=O)N(C)C[C@@H]1Oc2ccc(NC(=O)CCCCCC(=O)Nc3ccccc3N)cc2CC(=O)N([C@@H](C)CO)C[C@@H]1C,-23,0.23,2.1,.
CNC[C@@H]1Oc2ccc(NS(=O)(=O)c3ccc(C)cc3)cc2C(=O)N([C@@H](C)CO)C[C@H]1C,-16,0.45,1.0,-34
C[C@H](CO)N1C[C@H](C)[C@@H](CN(C)Cc2ccc(C(=O)Nc3ccccc3N)cc2)Oc2ccc(NC(=O)Cc3ccccc3)cc2C1=O,-18,-0.15,-1.0,.
COc1ccc(NC(=O)Nc2ccc3c(c2)CC(=O)N([C@@H](C)CO)C[C@@H](C)[C@@H](CN(C)Cc2ccccc2)O3)cc1,-5,0.26,.,4
C[C@@H]1CN([C@@H](C)CO)C(=O)c2cc(NC(=O)Cc3ccccc3)ccc2O[C@@H]1CN(C)C(=O)Nc1ccccc1,-8,-0.23,0.3,-16

Remaining list, next part.
molecule,MITF inh,YB-1 expression,PD-1 reverse act,Shh pathway inh
Cc1noc(C)c1S(=O)(=O)N(C)C[C@@H]1Oc2ccc(NS(=O)(=O)c3ccc(F)cc3)cc2CC(=O)N([C@H](C)CO)C[C@@H]1C,1,-0.0068,0.6,.
O=S(=O)(CCN1CCOCC1)c1ccc(OC(F)(F)F)cc1,0,0.23,-0.3,1
O=C(CSc1ccc2ccccc2n1)Nc1ccnc2ccccc12,29,.,-4.1,.
O=C(CSc1ncccn1)Nc1ccc([N+](=O)[O-])cc1,-6,.,3.2,.
CC1(C)NCCC12C(=O)N(Cc1ccccc1)c1ccccc12 (stereo unspecified),12,0.087,-0.8,35
C[C@H]1CN([C@@H](C)CO)C(=O)Cc2cc(NC(=O)C3CCCCC3)ccc2O[C@H]1CN(C)C,-4,0.37,-5.4,-39
Cc1ccc(S(=O)(=O)N(C)C[C@H]2Oc3ccc(NC(=O)C4CC4)cc3CC(=O)N([C@H](C)CO)C[C@H]2C)cc1,-12,-0.3,-1.2,-40
Cc1cc(C)c(S(=O)(=O)N(C)CC(=O)Nc2ccc(F)c(Cl)c2)c(C)c1,33,.,-1.2,.
COc1ccc(/C=C/C(=O)OC2CCCCC2)cc1,-79,-0.018,-0.3,-56
C[C@@H]1CN([C@H](C)CO)C(=O)Cc2cc(NC(=O)C3CCCCC3)ccc2O[C@@H]1CN(C)Cc1ccc2c(c1)OCO2,4,0.61,-2.6,-9
NNC(=O)c1ccc(COc2cc(Cl)ccc2Cl)o1,21,0.18,-1.3,.
